Beta2AR agonist – activates human beta-2 adrenergic receptor causing internalization; 0.43% of 340,000 active; P07550; response, % (concentration not given with the values); AID 504454; Am2.2-beta2AR cells, FAP receptor internalization, flow cytometry; reference of the scale not given here;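 active = response above a set limit, near 3 SD of response in nonfluorescent compounds, cut at about 42% in these data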;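 note: stock transfer was 100 nL into about 11 µL; a reference agonist was the positive control; negative values mostly stem from fluorescent compounds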
Target sequence (P07550 whole entry, looked up): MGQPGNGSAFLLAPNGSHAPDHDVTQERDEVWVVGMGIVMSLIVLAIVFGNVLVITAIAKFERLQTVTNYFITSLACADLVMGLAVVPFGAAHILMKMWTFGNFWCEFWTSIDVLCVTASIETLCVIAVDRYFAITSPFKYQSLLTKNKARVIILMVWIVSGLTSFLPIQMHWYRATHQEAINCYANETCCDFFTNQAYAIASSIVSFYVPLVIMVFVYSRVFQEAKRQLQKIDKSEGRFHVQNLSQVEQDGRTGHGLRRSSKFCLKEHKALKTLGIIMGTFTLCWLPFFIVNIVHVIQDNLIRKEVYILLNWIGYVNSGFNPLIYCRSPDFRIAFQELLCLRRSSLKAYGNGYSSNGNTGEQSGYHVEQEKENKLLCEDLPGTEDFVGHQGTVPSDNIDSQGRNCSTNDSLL
Ecoli growth – blocks Escherichia coli growth. OD600, 23 h; active compounds read low. OD600 absorbance (test concentration not listed). 0.21% of 330,000 active;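 active = OD600 absorbance below the run mean of sample wells minus 3.6 SD, in any replicate, cut at about 0.56 in these data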;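 note: stock transfer was 300 nL into about 60 µL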
FGF22 binding – binders of recombinant human FGF22 by thermal shift; SYPRO orange fluorescence; percent of sucrose octasulfate shift, DMSO zero; calls only at 9.99 µM; 1.5% of 340,000 active; AID 651658;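 active = melting point raised past a set limit in the mean and every replicate; three in four hits are not shown here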
Target sequence (Q9HCT0 whole entry, looked up): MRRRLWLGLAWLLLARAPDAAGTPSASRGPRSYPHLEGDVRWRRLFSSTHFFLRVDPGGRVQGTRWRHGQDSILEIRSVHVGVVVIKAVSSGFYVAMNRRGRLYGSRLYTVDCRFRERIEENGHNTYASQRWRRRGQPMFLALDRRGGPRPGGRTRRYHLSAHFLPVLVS
ALR inh – blocks human ALR sulfhydryl oxidase activity; purified ALR, DTT oxidation, H2O2 HRP-luminol luminescence; inhibition, % (test concentration not listed); P55789; 3.8% of 290,000 active;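 active = mean and each replicate at 75% or more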;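 note: stock transfer was 7.5 nL into about 7.5 µL; 0% = neutral wells and 100% = wells with inactivated enzyme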
UCH37 inh – blocks the human deubiquitinase UCH37 | Q9Y5K5 | purified proteasome/UCH37, Ub-AMC cleavage fluorescence | inhibition, % (test concentration not listed) | 0.33% of 330,000 active;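 active = mean of two replicates above 20%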;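 note: 0% = compound-free wells with enzyme and 100% = wells lacking proteasome; stock transfer was 100 nL into about 20 µL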
Target sequence (Q9Y5K5 whole entry, looked up): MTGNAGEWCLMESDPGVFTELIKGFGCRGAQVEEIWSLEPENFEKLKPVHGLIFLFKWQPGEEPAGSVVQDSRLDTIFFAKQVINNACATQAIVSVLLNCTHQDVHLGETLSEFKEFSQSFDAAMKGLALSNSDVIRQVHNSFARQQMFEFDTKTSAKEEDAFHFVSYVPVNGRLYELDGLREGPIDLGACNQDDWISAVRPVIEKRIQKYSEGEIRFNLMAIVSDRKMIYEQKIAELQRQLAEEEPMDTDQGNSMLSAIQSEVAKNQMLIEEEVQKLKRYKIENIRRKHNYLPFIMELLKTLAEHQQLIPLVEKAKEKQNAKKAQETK
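Test system – human UCH37 enzyme supplied as purified proteasome complex · Incubation – 30 min preincubation with enzyme, 25 min cleavage at room temperature · Detection – AMC fluorescence from Ub-AMC cleavage, excitation 355 nm, emission 460 nm · Benchmarks – no-proteasome wells (full inhibition) and compound-free wells (no inhibition)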
rRNA inh HTS – inhibitors of bacterial rRNA selective over humanized ribosomes; E. coli WT GFP vs humanized-ribosome RFP mutants, fluorescence, 24 h; active compounds read low; DMSO median 0, no signal -100; AID 720706; GFP signal change (wild-type ribosome), % (no concentration beside the values); 1.6% of 350,000 active;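 active = significant combined selectivity score with lowered wild-type GFP, culture density cut under 30%, mutant RFP and density less affected; inactive = any of these conditions unmet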; note: one replicate is shown; some compounds called inactive have numbers as strong as hits
HNF4A DNA FP – change in binding of human HNF4 alpha to DNA; P41235; HNF4a-FITC DNA binding, fluorescence polarization, 1 h; activity change, % at 10 µM; 0.3% of 360,000 active; in the data active = activity change above about 30%, passing the limit was not always enough;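 note: controls were the assay level and a saturating level of protein; the project sought stronger binding though the title names inhibitors; some compounds called inactive have numbers as strong as hits; positive values seem to mean higher polarization but the record does not say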
rRNA inh HTS OD600 – also measured in rRNA inh HTS; calls as there; OD600 change, %; measured here: OD600 growth;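 optical density of the mix in the first replicate; 0 = DMSO median and -100 = no signal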
rRNA inh HTS RFP – further read-out of rRNA inh HTS, marked with its call; RFP signal change, %; measured here: RFP humanized mutant strains;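 first replicate; 0 = DMSO median and -100 = no signal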
An asterisk follows results filed as active; i = inactive; / = not tested or not shown.

Start of the data: the first four records, to show the layout:
SMILES	Beta2AR agonist	Ecoli growth	FGF22 binding	ALR inh	UCH37 inh	rRNA inh HTS	rRNA inh HTS OD600	rRNA inh HTS RFP	HNF4A DNA FP
COC(=O)C1=C(N)Oc2cc(C)[nH]c(=O)c2C1c1ccncc1 (stereo not drawn)	2	0.73	/	-2	4.2	/	/	/	0.5
CCc1nnc(NC(=O)c2ccc(S(=O)(=O)N3CCCC(C)C3)cc2)o1 (stereo not drawn)	1	0.68	i	0	3.5	-43	-72	-13	1.7
Cc1ccc(S(=O)(=O)N2CC3(O)CN(C(=O)OC(C)C)N(C(=O)OC(C)C)CC3(OC(=O)NC3CCCC3)C2)cc1 (stereo not drawn)	/	/	i	/	/	7	12	0.2	-0.9
O=C(Cn1ncc(N2CCOCC2)c(Br)c1=O)c1ccc(Cl)cc1	-5	0.66	i	-3	8.7	4	2	4.2	5.1

The whole of this part, repeating the preview:
SMILES	Beta2AR agonist	Ecoli growth	FGF22 binding	ALR inh	UCH37 inh	rRNA inh HTS	rRNA inh HTS OD600	rRNA inh HTS RFP	HNF4A DNA FP
COC(=O)C1=C(N)Oc2cc(C)[nH]c(=O)c2C1c1ccncc1 (stereo not drawn)	2	0.73	/	-2	4.2	/	/	/	0.5
CCc1nnc(NC(=O)c2ccc(S(=O)(=O)N3CCCC(C)C3)cc2)o1 (stereo not drawn)	1	0.68	i	0	3.5	-43	-72	-13	1.7
Cc1ccc(S(=O)(=O)N2CC3(O)CN(C(=O)OC(C)C)N(C(=O)OC(C)C)CC3(OC(=O)NC3CCCC3)C2)cc1 (stereo not drawn)	/	/	i	/	/	7	12	0.2	-0.9
O=C(Cn1ncc(N2CCOCC2)c(Br)c1=O)c1ccc(Cl)cc1	-5	0.66	i	-3	8.7	4	2	4.2	5.1
COC(=O)CN1C(=O)N/C(=C/c2cc3c(cc2OC)OCO3)C1=O	3	0.72	i	-4	2.5	4	-3	-6.9	1.3
O=C(COC(=O)c1cnccn1)NCCc1ccc(Cl)cc1Cl	-1	0.65	/	3	2.4	3	7	-0.2	5.4
O=C(Cn1c(=O)sc2ccccc21)NCc1ccccn1	5	0.75	i	-8	1.4	10	10	0.7	6.9
COC(=O)NNC(=S)NCc1ccc(C)cc1	-1	0.71	/	52	2.7	/	/	/	0.8
COc1ccc(-c2c(C#N)c(N)nc3c2c(=O)n(C)c(=O)n3C)cc1	1	0.74	/	-1	-12	/	/	/	-1.1
CCOC(=O)N1CCN(C(=O)CSc2nnc(-c3cccs3)o2)CC1	-7	0.7	i	/	2.0	-1	2	-0.6	-1.0
Cc1ccc(CNc2cnn(C34CC5CC(CC(C5)C3)C4)c(=O)c2Cl)cc1	5	0.67	/	-1	2.8	/	/	/	-3.2
CSCCC(C(=O)NC1CCCC1)n1c(-c2ccccn2)nc2ccccc21 (stereo not drawn)	/	/	i	/	/	-9	-14	-5.0	1.9
Cc1ccccc1C(=O)N[C@H](C(=O)Nc1ccc(Cl)c(Cl)c1)C(C)C	2	0.72	i	-1	2.6	-3	4	0.5	-1.2
CCn1c(COc2ccc(Cl)cc2)nnc1SC1CCc2ccccc2C1=O (stereo not drawn)	-11	0.72	i	-4	5.6	-52	-79	-23	-2.8
CCOCc1[nH]c(=S)[nH]c(=O)c1Cc1ccc(OC(C)C)cc1	1	0.69	/	2	-0.9	/	/	/	3.4
CCOC(=O)C1=C(c2ccccc2)N=c2s/c(=C\c3ccco3)c(=O)n2C1c1cccs1 (stereo not drawn)	6	/	/	1	/	/	/	/	-2.3
CCCc1cc(C(=O)OC)c(NC(=O)c2cc(C)on2)s1	-1	0.75	/	/	-31	/	/	/	-3.3
Cc1ccc(C(=O)OC2OC(=O)C(Cl)=C2N2CCOCC2)cc1 (stereo not drawn)	10	/	/	55	/	/	/	/	-0.4
CCCN1C(=O)/C(=C\C=C2/Sc3ccccc3N2CCO)SC1=S	-14	0.76	/	18	12	10	8	31	15
COc1ccc(S(=O)(=O)N2CCN(C(=O)c3ccc(NC(C)=O)cc3)CC2)cc1	-2	0.68	i	-4	5.7	5	5	0.7	7.7
COCc1c(C(=O)OCC(=O)N(C)C2CCS(=O)(=O)C2)oc2ccccc12 (stereo not drawn)	-5	0.68	i	-2	2.8	3	8	-3.5	-0.4
O=C(Nc1nnc(C2CC2)s1)c1cc(Cl)sc1Cl	-1	0.69	i	9	-1.1	-4	-18	-3.3	2.0
COc1cccc(C(=O)NNC(=O)C2CCCO2)c1 (stereo not drawn)	2	0.67	i	/	4.2	6	3	3.4	-0.7
O=C1CCC(OCc2ccccc2)CCN1CC[C@@H](Sc1ccccc1)c1ccccc1 (stereo partly drawn)	/	/	i	/	/	-4	1	0.1	2.1
Cc1ccc(N(C(=O)c2snc(C(N)=O)c2N)C(CC(C)C)C(=O)NC2CCCC2)cc1 (stereo not drawn)	-6	0.68	i	2	-13	/	/	/	-2.5
O=C(c1ccc(CS(=O)c2ccc(F)cc2)o1)N1CCN(C2CCCCC2)CC1 (stereo not drawn)	0	0.62	i	2	-1.1	4	-8	-3.7	-5.9
COc1cc(NC(=O)[C@H]2O[C@@H](n3cnc4c(N)ncnc43)[C@H](O)[C@@H]2O)cc(OC)c1OC	/	/	i	/	/	-2	-1	-1.0	-1.7
Nc1nncn1C(=O)CCCOc1ccc(Cl)cc1Cl	-2	0.69	/	10	3.3	/	/	/	0.3
CC1(C)Cc2c(C#N)c(NCCN3CCOCC3)nc(-c3ccco3)c2CO1	-1	0.67	/	0	-78	/	/	/	3.8
Cc1cc2nc(-c3cccc(Cl)c3)c(CC(C)(C)C)n2c(C)c1Br	/	/	i	/	/	4	3	-6.9	2.4
COc1ccc(C(=O)CNc2ccccc2CO)cc1	2	0.67	i	0	3.3	4	-1	-0.1	3.0
CN(Cc1ccccc1)C(=C(Cl)Cl)/C(=C1/NCCN1C)[N+](=O)[O-]	-2	0.67	i	9	3.2	15	16	-0.1	-5.8
CC(C(=O)Nc1ccc2c(c1)OCCO2)N(C)Cc1c(F)cccc1Cl (stereo not drawn)	-10	0.66	i	-1	4.7	-46	-65	-8.0	-1.0
CCCCC1(CC)COC(c2ccccc2)OC1 (stereo not drawn)	/	0.68	i	/	3.6	5	4	0.6	0.2
Cc1ccccc1C(=O)Oc1cc(N)n(S(=O)(=O)c2ccccc2)n1	-4	0.74	i	29	4.6	9	10	0.2	0.6
COc1ccccc1Nc1nc(N)nc(CN2CCOCC2)n1	5	0.72	i	-12	6.3	7	13	2.0	2.1
N#CCc1ccc(OC(=O)c2ccncc2)cc1	1	0.7	i	4	2.5	5	3	-2.3	4.0
O=C(C[n+]1cccc(C(=O)N/N=C/c2ccc(Br)cc2)c1)c1ccccc1	6	/	i	19	/	4	20	2.1	2.7
CSc1ccccc1NC(=O)CN(C)C(=O)CCc1c[nH]c2ccccc12	19	0.64	i	3	6.2	1	-7	-1.1	-1.4
O=C(N/N=C/c1ccc2c(c1)OCO2)/C(=C/c1ccc2c(c1)OCO2)NC(=O)c1ccccc1	-4	/	/	-4	/	/	/	/	-4.6
COc1ccc(C2SCC(=O)N2c2ccccc2)cc1 (stereo not drawn)	2	0.69	i	/	0.3	1	-2	0.5	-0.4
Cc1ccc(-c2noc(CN(C(=O)c3cccc(Br)c3)C(C)C)n2)cc1	-8	0.77	i	7	5.3	-7	-11	1.2	0.7
CCOc1ccccc1N(CC(=O)NCCOC)C(=O)CCC(=O)Nc1ccccn1	-3	0.69	i	-1	0.0	6	9	0.1	-1.8
CCc1nc2ccc(C(=O)NCc3ccc4c(c3)OCO4)cn2c1N(CC)CCOC	/	/	i	/	/	-7	-10	0.1	1.4
Cc1ccc(-c2cc(C(=O)N3CC(C)CC(C)C3)c3ccccc3n2)o1 (stereo not drawn)	5	0.65	i	5	i	-1	16	4.3	-2.2
O=C(Nc1ccccc1Br)C1CC(=O)N(c2ccc3c4c(cccc24)CC3)C1 (stereo not drawn)	20	0.72	i	-9	-0.1	-16	-14	-2.0	-1.1
O=C(Cc1ccccc1F)Nc1ccccc1-c1ccccc1	-3	0.68	i	/	5.2	4	-1	-2.0	5.2
COc1ccc(/C=C/C(=O)OCC(=O)NC2CCCC2)cc1OC	-11	0.67	/	1	-12	-5	-9	-0.3	-2.5
CCOC(=O)C1CCCN(Cc2ccc(OCc3ccccc3)c(OC)c2)C1 (stereo not drawn)	-1	0.68	i	-6	-0.2	-5	-7	-0.6	-4.3
O=C(c1ccc2c(c1)OCCCO2)N1CCCCC1	-1	0.68	i	-14	0.3	/	/	/	2.0
CC1(C)C[C@@H]1C(=O)N/C(=C\CCCCSC[C@H](N)C(=O)O)C(=O)O	-1	/	i	-7	0.2	1	6	0.4	3.4
O=S(=O)(NCCCc1ccccc1)c1ccccc1	-2	0.72	/	-13	-0.9	/	/	/	0.0
CCN(CC)C(=O)[C@H]1CC(CC(=O)NC(C)(C)C)C(=O)N2CCc3c([nH]c4ccc(OC)cc34)[C@]12C (stereo partly drawn)	0	0.72	i	/	-1.8	-10	-17	3.8	-0.4
CC1(C)CC(=O)C(C=Nc2ccccc2C(=O)O)=C(O)C1	-5	0.68	i	-1	9.7	15	6	-1.0	0.3
Cc1cc(C)c2c(=O)n3c(nc2c1)C(C)NC(=O)c1cccnc1-3 (stereo not drawn)	/	/	i	/	/	5	3	-6.0	2.7
COc1cccc(C2c3[nH]c4ccccc4c3CCN2Cc2cccn2-c2ncccn2)c1 (stereo not drawn)	4	0.69	/	22	-1.2	/	/	/	4.3
CNC(=O)COC(=O)/C=C/c1c(C)nn(-c2ccccc2)c1C	-3	0.72	i	-5	4.8	0	-2	-1.1	4.2
O=C(CN1C(=O)NC2(CCCCCC2)C1=O)NCc1ccc(F)cc1	0	0.63	i	/	-4.8	11	5	1.5	0.1
COc1ccc(CC2SC(=Nc3ccc(F)cc3)NC2=O)cc1 (stereo not drawn)	1	0.71	i	-2	1.9	-11	-3	-3.6	0.7
CC(C)Cn1ccc(=O)n(CC(C)C)c1=O	4	0.7	/	-14	2.5	/	/	/	4.3

An excerpt of these results, as a markdown table.
| Compound | Beta2AR agonist | Ecoli growth | FGF22 binding | ALR inh | UCH37 inh | rRNA inh HTS | rRNA inh HTS OD600 | rRNA inh HTS RFP | HNF4A DNA FP |
| --- | --- | --- | --- | --- | --- | --- | --- | --- | --- |
| COc1cc(NC(=O)[C@H]2O[C@@H](n3cnc4c(N)ncnc43)[C@H](O)[C@@H]2O)cc(OC)c1OC | / | / | i | / | / | -2 | -1 | -1.0 | -1.7 |
| N#CCc1ccc(OC(=O)c2ccncc2)cc1 | 1 | 0.7 | i | 4 | 2.5 | 5 | 3 | -2.3 | 4.0 |
| O=C(Nc1nnc(C2CC2)s1)c1cc(Cl)sc1Cl | -1 | 0.69 | i | 9 | -1.1 | -4 | -18 | -3.3 | 2.0 |

(list continues)
SMILES	Beta2AR agonist	Ecoli growth	FGF22 binding	ALR inh	UCH37 inh	rRNA inh HTS	rRNA inh HTS OD600	rRNA inh HTS RFP	HNF4A DNA FP
COc1ccccc1OC(=O)CCN1c2ccccc2Sc2ccccc21	-3	0.71	/	88*	-1.5	/	/	/	5.2
CC[C@@]1(C(=O)OC)N[C@H](CN(C)C(=O)c2ccc(F)cc2)[C@@H]2C(=O)N(Cc3ccccc3)C(=O)[C@@H]21	-5	0.7	i	5	3.4	17	9	-1.3	5.4
Cn1c(=O)c(-c2cc(Br)ccc2N)nc2ccccc21	-8	0.74	/	14	9.5	/	/	/	4.3
COc1ccc(NC(=O)C[C@H]2C(=O)N(c3ccc(OC)cc3)C[C@@H]2c2ccc(Br)cc2)cc1	/	/	i	/	/	-11	-14	0.0	1.5

A portion of the library; the hit share may differ from the screen's.
